High-throughput results: PubChem, several laboratories
A1 inh – caspase 3/7 activation in MEF A1-2A-BIM cells, primary screen, A1 inhibitor project, cell-based, luminescence, HTS. Caspase-Glo 3/7 luminescence, 3 h; percent of clofoctol response, vehicle zero. AID 2462, 2010. 0.066% of 330,000 active. caspase activation, % (no concentration beside the values);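 active = over half of replicate activation scores above 10%, or exactly half above 10 with the replicate mean above 10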;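 note: wells of about 30 µL received 50 nL stock; many hits fall short of the cut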
UCH37 DUB inh – inhibitors of human UCH37 deubiquitinase, primary screen, biochemical, Ub-AMC cleavage, fluorescence. AID 588478, 2011. purified proteasome/UCH37. inhibition, % (concentration not given with the values). 0.33% of 330,000 active. Ubiquitin carboxyl-terminal hydrolase isozyme L5 (Homo sapiens), Q9Y5K5;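 active = mean of two replicates above 20%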;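 note: 0% = compound-free wells with enzyme and 100% = wells lacking proteasome; stock transfer was 100 nL into about 20 µL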
Target sequence (Q9Y5K5 whole entry, looked up): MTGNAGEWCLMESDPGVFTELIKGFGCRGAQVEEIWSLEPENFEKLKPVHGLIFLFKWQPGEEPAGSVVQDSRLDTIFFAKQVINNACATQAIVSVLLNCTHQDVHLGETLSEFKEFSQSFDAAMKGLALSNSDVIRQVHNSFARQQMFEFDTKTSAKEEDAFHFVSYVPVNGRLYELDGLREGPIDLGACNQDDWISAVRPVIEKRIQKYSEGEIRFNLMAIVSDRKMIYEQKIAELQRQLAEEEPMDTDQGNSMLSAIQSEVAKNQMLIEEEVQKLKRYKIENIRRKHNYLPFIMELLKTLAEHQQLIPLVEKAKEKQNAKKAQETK
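Reagent: Ub-AMC substrate; assay system: Proteasome-associated human UCH37 deubiquitinase; controls: no-proteasome and no-compound wells; read-out: % inhibition of Ub-AMC cleavage fluorescence; timing: 30 min preincubation with enzyme, 25 min cleavage at room temperature; signal: AMC fluorescence from Ub-AMC cleavage, excitation 355 nm, emission 460 nm; buffer or medium: Tris-HCl pH 7.4 plus ovalbumin, ATP-MgCl2, DTT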
Vif A3G – inhibitors of Vif binding to APOBEC3G peptide, primary screen, biochemical, TR-FRET, GST-Vif 1-94, biotin-A3G peptide, dose response retest (AID 1117319); TR-FRET GST-Vif / biotin-A3G peptide binding; higher % means a stronger effect; test concentration not given here; strong numbers were not always called active; inhibition, %, or IC50 in µM where a hit was titrated; 0.57% of 260,000 active;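 active = above the screen mean plus three standard deviations and confirmed in dose response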;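 note: Vif residues 1-94 fused to GST binding biotinylated APOBEC3G peptide 110-148; 0% = full assay without inhibitor and 100% = GST in place of GST-Vif; retest series ran down from 100 µM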
Beta2AR agonist – beta2AR agonists driving receptor internalization, primary screen, cell-based, FAP fluorogen, flow cytometry | Beta-2 adrenergic receptor (Homo sapiens), P07550 | 0.43% of 340,000 active | response, % (no concentration beside the values) | Am2.2-beta2AR cells; reference of the scale not given here | AID 504454, 2011;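 active = response above a set limit, near 3 SD of response in nonfluorescent compounds, cut at about 42% in these data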;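 note: stock transfer was 100 nL into about 11 µL; a reference agonist was the positive control; negative values mostly stem from fluorescent compounds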
LANA-H2B inh – blockers of LANA interaction with H2A/H2B – biochemical, FP readout, HTS, primary screen. Protein LANA1 (Human herpesvirus 8 type P (isolate GK18)), Q9QR71. cell-free LANA-H2A/H2B peptide, fluorescence polarization. inhibition, % (concentration not given with the values). 0.6% of 320,000 active; in the data active = inhibition mostly above about 10%, no sharp cut-off; inactive = mostly below about 6.7%;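 note: stock transfer was 7.5 nL into about 10 µL; 0% = median of vehicle wells and 100% = median of positive control wells; one replicate is shown; the record names a cut of 25% in any replicate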
HNF4A DNA FP – change in binding of human HNF4A to DNA, primary screen, biochemical, fluorescence polarization, FITC-DNA. activity change, % at 10 µM. 1 h. 0.3% of 360,000 active. Hepatocyte nuclear factor 4-alpha (Homo sapiens), P41235. AID 1224865, 2016; in the data active = activity change above about 30%, passing the limit was not always enough;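 note: controls were the assay level and a saturating level of protein; the project sought stronger binding though the title names inhibitors; some compounds called inactive have numbers as strong as hits; positive values seem to mean higher polarization but the record does not say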
Target sequence (P41235 whole entry, looked up): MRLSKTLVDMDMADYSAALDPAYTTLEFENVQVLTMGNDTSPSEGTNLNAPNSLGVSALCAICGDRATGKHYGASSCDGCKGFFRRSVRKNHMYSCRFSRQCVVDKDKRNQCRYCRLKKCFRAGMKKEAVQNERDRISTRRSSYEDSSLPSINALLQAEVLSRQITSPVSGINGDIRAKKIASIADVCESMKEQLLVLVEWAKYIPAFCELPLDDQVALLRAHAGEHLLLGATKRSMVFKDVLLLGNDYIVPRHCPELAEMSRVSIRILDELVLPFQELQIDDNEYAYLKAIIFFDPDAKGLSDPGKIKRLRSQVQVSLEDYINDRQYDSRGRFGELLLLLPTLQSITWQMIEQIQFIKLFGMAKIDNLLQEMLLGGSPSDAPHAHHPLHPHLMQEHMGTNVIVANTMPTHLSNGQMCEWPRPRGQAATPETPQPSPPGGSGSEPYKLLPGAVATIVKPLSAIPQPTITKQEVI
E coli growth – E. coli growth inhibition, primary screen, OD600; AID 1053175, 2014; Escherichia coli growth, 23 h; hits give low values; 0.21% of 330,000 active; OD600 absorbance (concentration not given with the values);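 active = OD600 absorbance below the run mean of sample wells minus 3.6 SD, in any replicate, cut at about 0.56 in these data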;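 note: stock transfer was 300 nL into about 60 µL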
Numbers without * were called inactive; & = joins results of further samples.

For O=C(CSc1nc2nc3c(cc2c(=O)n1-c1ccccc1)CCCC3)Nc1ccccc1 the results were A1 inh 0.0, UCH37 DUB inh -0.2, Beta2AR agonist -14, LANA-H2B inh 0.1, HNF4A DNA FP -0.8 and E coli growth 0.7.
For COc1cccc(/C=N/NC(=O)c2ccccc2N(Cc2ccccc2)S(=O)(=O)c2ccccc2)c1OC the results were A1 inh 0.3, Vif A3G 8%, Beta2AR agonist 23, LANA-H2B inh -6.3 and HNF4A DNA FP -0.9.
O=C(O)c1ccc([N+](=O)[O-])cc1 was read as UCH37 DUB inh 2.0, Beta2AR agonist 3, HNF4A DNA FP 2.2 and E coli growth 0.68.
`Cc1ccc(-c2ccc(SCC(=O)N3CCc4ccccc43)nn2)cc1` gave A1 inh -1.0, UCH37 DUB inh 4.0 and E coli growth 0.7.
For O=C(COC(=O)c1cncc(Br)c1)NCc1ccc(F)cc1 the results were A1 inh -0.4, UCH37 DUB inh -0.2, Vif A3G -62%, Beta2AR agonist -1, LANA-H2B inh -1.0, HNF4A DNA FP 1.3 and E coli growth 0.66.
COc1ccccc1-c1ccc(SCC(=O)NCCc2ccccc2)nn1 was read as A1 inh -0.4, UCH37 DUB inh 2.2, Beta2AR agonist 0, LANA-H2B inh 0.6, HNF4A DNA FP -4.9 and E coli growth 0.66.
CC(C)(C)c1ccc(C(=O)N2CCN(c3ncccn3)CC2)cc1 was read as A1 inh 0.3, UCH37 DUB inh 3.6, Vif A3G -4%, Beta2AR agonist 2, LANA-H2B inh 3.0, HNF4A DNA FP -0.6 and E coli growth 0.67.
Screening CCOC(=O)c1cc(-c2csc(N/N=C/c3ccccc3Cl)n2)on1 returned A1 inh 1.1, Vif A3G 1%, Beta2AR agonist 7, LANA-H2B inh -3.4 and HNF4A DNA FP 1.7.
For COc1ccc(N2CCN(C(=O)C3Cc4ccccc4CN3C(=O)c3ccccc3)CC2)cc1 (stereo not drawn) the results were A1 inh 0.5, UCH37 DUB inh 0.7, Vif A3G 6%, Beta2AR agonist -5, LANA-H2B inh 1.5, HNF4A DNA FP 1.1 and E coli growth 0.64.
Screening CN(C)S(=O)(=O)NCCNC(=O)c1cc(OCC(F)(F)F)ccc1OCC(F)(F)F returned A1 inh 0.5, UCH37 DUB inh 0.1, Beta2AR agonist -6, LANA-H2B inh 2.8, HNF4A DNA FP 2.4 and E coli growth 0.68.
Screening Cc1ccc(Nc2nc(CSc3nnc(-c4ccncc4)n3C)cs2)cc1 returned A1 inh 0.1, UCH37 DUB inh 2.7, Beta2AR agonist 4, LANA-H2B inh 0.3, HNF4A DNA FP 2.2 and E coli growth 0.64.
`COc1ccc(C(=O)COC(=O)CCc2ccccc2)cc1` gave A1 inh -0.4, UCH37 DUB inh 1.1, Vif A3G 8%, Beta2AR agonist -9, LANA-H2B inh 0.4, HNF4A DNA FP -4.1 and E coli growth 0.63.
`COc1ccc(C(=O)O)cc1S(=O)(=O)N1CCN(c2ccccn2)CC1` gave A1 inh -0.1, UCH37 DUB inh 1.8, Vif A3G 5%, Beta2AR agonist 9, LANA-H2B inh -7.3, HNF4A DNA FP 2.0 and E coli growth 0.61.
Cc1cc(=O)oc2cc(OC(=O)c3ccco3)ccc12 was read as UCH37 DUB inh inactive, Vif A3G -6%, Beta2AR agonist 7, HNF4A DNA FP -0.5 and E coli growth 0.65.
`CCC(C)NC(=O)C1CCCCN1S(=O)(=O)c1ccc(F)cc1` (stereo not drawn) gave A1 inh -0.2, UCH37 DUB inh -0.9, Vif A3G 9%, Beta2AR agonist 3, LANA-H2B inh -2.6, HNF4A DNA FP -3.2 and E coli growth 0.72.

The closing 4 compounds of the part above are carried over, then new ones follow:
`COc1ccc(C(=O)COC(=O)CCc2ccccc2)cc1` gave A1 inh -0.4, UCH37 DUB inh 1.1, Vif A3G 8%, Beta2AR agonist -9, LANA-H2B inh 0.4, HNF4A DNA FP -4.1 and E coli growth 0.63.
`COc1ccc(C(=O)O)cc1S(=O)(=O)N1CCN(c2ccccn2)CC1` gave A1 inh -0.1, UCH37 DUB inh 1.8, Vif A3G 5%, Beta2AR agonist 9, LANA-H2B inh -7.3, HNF4A DNA FP 2.0 and E coli growth 0.61.
Cc1cc(=O)oc2cc(OC(=O)c3ccco3)ccc12 was read as UCH37 DUB inh inactive, Vif A3G -6%, Beta2AR agonist 7, HNF4A DNA FP -0.5 and E coli growth 0.65.
`CCC(C)NC(=O)C1CCCCN1S(=O)(=O)c1ccc(F)cc1` (stereo not drawn) gave A1 inh -0.2, UCH37 DUB inh -0.9, Vif A3G 9%, Beta2AR agonist 3, LANA-H2B inh -2.6, HNF4A DNA FP -3.2 and E coli growth 0.72.
Screening CCC(=O)Nc1nnc(CSCc2ccccc2)s1 returned A1 inh 0.5, UCH37 DUB inh -0.3, Vif A3G 2%, Beta2AR agonist -7, LANA-H2B inh 1.9, HNF4A DNA FP 4.4 and E coli growth 0.71.
Screening NC(=O)c1oc2ccc(Cl)cc2c1NC(=O)CN1CCOCC1 returned A1 inh 0.8, UCH37 DUB inh -7.3, Vif A3G -5%, Beta2AR agonist 1, LANA-H2B inh 2.5, HNF4A DNA FP -2.7 and E coli growth 0.72.
`O=C(CS(=O)(=O)c1ccc2ccccc2c1)Nc1ccccc1Cl` gave A1 inh 0.1, UCH37 DUB inh -2.9, Beta2AR agonist -5, LANA-H2B inh -3.1, HNF4A DNA FP 2.0 and E coli growth 0.64.
Screening COn1c(=O)c(-c2ccc(F)cc2)[n+]([O-])c2ccccc21 returned A1 inh 0.9, UCH37 DUB inh -19, Vif A3G 4%, Beta2AR agonist 9, LANA-H2B inh 2.0, HNF4A DNA FP 3.0 and E coli growth 0.64.
For O=C(CNC(=O)C12CC3CC(CC(C3)C1)C2)N1CCN(S(=O)(=O)c2cccs2)CC1 the results were A1 inh -0.5, UCH37 DUB inh -4.4, Vif A3G -14%, Beta2AR agonist -8, LANA-H2B inh 2.6, HNF4A DNA FP 2.1 and E coli growth 0.67.
For CCOc1ccc(CCNC(=O)COC(=O)COc2ccc(C(C)=O)cc2)cc1OCC the results were A1 inh -0.6, UCH37 DUB inh -0.3, Vif A3G 7%, Beta2AR agonist 1, LANA-H2B inh -5.4, HNF4A DNA FP -1.2 and E coli growth 0.64.
For COC(=O)c1ccc(C(=O)OC)c(N)c1 the results were A1 inh -2.7, Vif A3G -3% and LANA-H2B inh 2.4.
`Cc1cc(NC(=O)CSc2nnc(-c3ccoc3C)o2)no1` gave A1 inh 0.6, UCH37 DUB inh 2.4, Vif A3G 3%, Beta2AR agonist -1, LANA-H2B inh 1.1, HNF4A DNA FP -2.5 and E coli growth 0.7.
`O=C(NCc1ccco1)C1CC(c2c(Cl)cccc2Cl)=NO1` (stereo not drawn) gave A1 inh 2.8, UCH37 DUB inh -2.1, Vif A3G 10%, Beta2AR agonist -4, LANA-H2B inh -3.0, HNF4A DNA FP 0.9 and E coli growth 0.7.
Screening CCCCOc1ccc(/C=N/Nc2cc(N3CCOCC3)nc(C)n2)cc1 returned A1 inh -0.3, Vif A3G 6%, Beta2AR agonist 8, LANA-H2B inh 1.5 and HNF4A DNA FP 1.0.
Screening Cc1ccnc(NC(=O)c2cccc(S(=O)(=O)Nc3ccc(C)cc3C)c2)c1 returned A1 inh -0.5, UCH37 DUB inh 0.1, Vif A3G -6%, Beta2AR agonist 0, LANA-H2B inh -2.5, HNF4A DNA FP -2.9 and E coli growth 0.7.
Screening COc1cc(C(=O)N2CCCC(c3nc(-c4cccs4)no3)C2)cc(OC)c1OC (stereo not drawn) returned A1 inh 0.5, UCH37 DUB inh 2.4, Vif A3G -10%&-2%, Beta2AR agonist -2, LANA-H2B inh 2.5, HNF4A DNA FP 1.0 and E coli growth 0.62.
For Cc1cccc(CN2C(=O)NC(c3ccccc3)(c3ccccc3)C2=O)c1 the results were A1 inh 0.3, Vif A3G 1%, Beta2AR agonist 3, LANA-H2B inh 1.7 and HNF4A DNA FP 4.9.
`CC1CCN(CC(=O)Nc2ccc3c(c2)OCO3)CC1` gave UCH37 DUB inh 3.9, Vif A3G -7%, Beta2AR agonist -1, HNF4A DNA FP 0.3 and E coli growth 0.71.
For CCOc1ccc(Cc2n[nH]c(=S)n2Cc2ccccc2)cc1 the results were A1 inh -0.5, UCH37 DUB inh 3.0, Vif A3G 15%, Beta2AR agonist -2, LANA-H2B inh -5.3, HNF4A DNA FP 1.8 and E coli growth 0.7.
For Cc1ccc(C(=O)Nc2ccc3cn[nH]c3c2)cc1S(=O)(=O)N1CCOCC1 the results were A1 inh 0.1, UCH37 DUB inh 2.1, Vif A3G 8%, Beta2AR agonist 19, LANA-H2B inh 3.9, HNF4A DNA FP 3.9 and E coli growth 0.71.
Screening O=C(NCc1ccc(F)cc1)c1c2c(nc3ccccc13)CCN(Cc1ccccc1)C2 returned A1 inh 0.7, UCH37 DUB inh -6.8, Beta2AR agonist 6, LANA-H2B inh -0.8, HNF4A DNA FP 2.3 and E coli growth 0.72.
Cn1nnnc1SCC(=O)c1c(N)n(C)c(=O)n(C)c1=O was read as A1 inh 0.6, UCH37 DUB inh -0.5, Vif A3G -2%, Beta2AR agonist -7, LANA-H2B inh -3.8, HNF4A DNA FP 0.8 and E coli growth 0.77.
N#Cc1c(-c2ccc(Br)cc2)cc(-c2cccnc2)nc1N was read as A1 inh -0.5, UCH37 DUB inh 2.9, Vif A3G -2%, Beta2AR agonist 7, LANA-H2B inh -7.5, HNF4A DNA FP 2.2 and E coli growth 0.69.
Screening Cc1cc(C)nc(Sc2c(C)n[nH]c2C)n1 returned A1 inh 1.2, UCH37 DUB inh -0.1, Vif A3G -4%, Beta2AR agonist 1, LANA-H2B inh 2.8, HNF4A DNA FP 2.5 and E coli growth 0.68.
`O=C(CCN1C(=O)c2ccccc2S1(=O)=O)Nc1ccc(F)c([N+](=O)[O-])c1` gave A1 inh 0.9, UCH37 DUB inh -1.8, Vif A3G -3%, Beta2AR agonist 9, LANA-H2B inh -2.8, HNF4A DNA FP 2.0 and E coli growth 0.68.
For Cc1ccccc1OCCCN1CCOCC1 the results were A1 inh -0.4, UCH37 DUB inh 1.7, Vif A3G -4%, Beta2AR agonist -3, LANA-H2B inh -2.0, HNF4A DNA FP 1.6 and E coli growth 0.66.
For COC(=O)C1=C(C(=O)OC)[C@@H]2Nc3ccccc3[C@@]23C[C@@H](C(=O)OC)N(C(=O)CC(C)C)C3=N1 the results were A1 inh 0.0, UCH37 DUB inh 0.7, Beta2AR agonist -1, LANA-H2B inh 1.4 and HNF4A DNA FP -3.6.
COC(=O)c1ccc(CSc2n[nH]c(=S)s2)o1 was read as A1 inh 0.8, UCH37 DUB inh 0.3, Vif A3G 2%, Beta2AR agonist -1, LANA-H2B inh 1.1, HNF4A DNA FP -0.1 and E coli growth 0.72.
For CCOCCCNC(=S)N1CCCN(c2nc3cc(C)cc(C)c3cc2C#N)CC1 the results were A1 inh 0.2, UCH37 DUB inh -28, Vif A3G -6%, Beta2AR agonist 3, LANA-H2B inh 0.2, HNF4A DNA FP 4.8 and E coli growth 0.69.
For O=c1c2c([nH]c3ccccc13)CCCCC2 the results were A1 inh 0.5, UCH37 DUB inh 0.5, Vif A3G 9%, Beta2AR agonist -2, LANA-H2B inh 4.5, HNF4A DNA FP -1.0 and E coli growth 0.57.
